# VACV mCherry inh – qHTS for Stage-Specific Inhibitors of Vaccinia Orthopoxvirus: mCherry Reporter Primary qHTS; Vaccinia virus mCherry reporter infection, fluorescence; about a quarter of the inactives have no number; Potency, µM (top dose mostly 36.5 µM), for inactives: at the highest dose activity change, negative = inhibition, actives largely listed as inhibitors; hit rate 0.63% among 310,000; AID 720579, 2013; active = well fitted inhibition curve with a large enough effect; inconclusive = small, poorly fitted or top-dose-only effect; inactive = no such curve, though single readings can be large or run the other way; tested in A549 cells; also: nearly all actives have a fitted effect of over 35% in size; inactives centre near -10
# VACV Venus inh – qHTS for Stage-Specific Inhibitors of Vaccinia Orthopoxvirus: Venus Reporter Primary qHTS. Vaccinia virus Venus reporter expression, fluorescence. Potency, µM (titrated, usually from 36.5 µM), for the others: at the highest dose activity change, negative = inhibition, actives largely listed as inhibitors. hit rate 0.46% among 330,000; active means well fitted inhibition curve with a large enough effect; inconclusive means small, poorly fitted or top-dose-only effect; inactive means no such curve, though single readings can be large or run the other way; tested in A549 cells; also: nearly all actives have a fitted effect of over 30% in size; inactives centre near -10
# * = called active by the depositor; i = inactive; ? = inconclusive; . = not tested or not shown; [ ] = remark or other dose. % is scaled to controls: 0 for no effect and ±100 for the full control effect; potency is read from the fitted curve at half-maximal effect.
# Sample of the layout, 2 compounds:
SMILES,VACV mCherry inh,VACV Venus inh
CCOc1ccccc1N1CC(C(=O)Nc2cc(Cl)ccc2C)CC1=O (centres undefined),-15%,-3%
COc1ccccc1NC(=O)CN(c1cc(C)cc(C)c1)S(=O)(=O)c1c(C)[nH]c(=O)[nH]c1=O,-8%,-1%

# Main list, from the start:
SMILES,VACV mCherry inh,VACV Venus inh
CCOc1ccccc1N1CC(C(=O)Nc2cc(Cl)ccc2C)CC1=O (centres undefined),-15%,-3%
COc1ccccc1NC(=O)CN(c1cc(C)cc(C)c1)S(=O)(=O)c1c(C)[nH]c(=O)[nH]c1=O,-8%,-1%
COc1ccc(Br)cc1C(=O)Nc1ccccc1N1CCN(C(=O)c2ccccc2)CC1,?,?
Cc1ccc(C(=O)C2CN3CCC2CC3)cc1 (centres undefined),.,1%
Oc1cccc(-c2nc3c4c(ncn3n2)-c2ccccc2CC42CCCC2)c1,13µM*,18µM*
COC(=O)Cn1c(O)c(N=NC(=O)CNC(=O)c2ccncc2)c2ccccc21,?,-10%
COc1ccc(NC(=O)/C(Cl)=C(/Cl)S(=O)Cc2ccc(Cl)cc2)cn1 (centres undefined),5.6µM*,7.9µM*
Cc1ccccc1NC(=O)Cc1cccc(C(F)(F)F)c1,-8%,-8%
NS(=O)(=O)c1ccc(CCNC(=O)C2COc3ccccc3C2)cc1 (centres undefined),-13%,-6%[7.34 µM]
CN(C)CCNS(=O)(=O)c1ccc(Cl)cc1,-7%,-5%
Cc1oc(-c2cccc(NC(=O)c3ccccc3)c2)nc1CNC(=O)c1cnc2ccccn2c1=O,-3%,0%
COc1ccc(C)cc1NC(=O)Cc1c(C(=O)O)n(C)c2ccccc12,-7%,-8%
Cn1c(=O)n(Cc2ccc(F)cc2)c(=O)c2c1nc1n2CCN1Cc1ccco1,-13%,-8%
O=C(CS(=O)(=O)c1ccccc1)Nc1cccnc1,-13%,22%
COc1ccc(C(=O)COC(=O)c2nn(C)cc2Cl)cc1,i,-18%
Cc1ccc(Nc2nc(N)c([N+](=O)[O-])c(N3CCOCC3)n2)cc1C,?,?
COc1cccc(CN2CCCC(c3nc(-c4ccncc4)ncc3-c3ccccc3)C2)c1O (centres undefined),-30%,-17%
Nc1nc2nc(Cl)[nH]c2c(=O)[nH]1,-9%,-15%
CC1=NN(c2ccccc2)C(=O)C1/C=C1\C(=O)NC(=O)N(c2ccc(C)c(C)c2)C1=O (centres undefined),-18%,-8%
COc1cccc(C2CC(=O)Nc3cc(OC)c(OC)c(OC)c32)c1OC(C)C (centres undefined),2%,-3%
CC(=O)N1N=C(c2ccccc2)OC1c1ccc([N+](=O)[O-])s1 (centres undefined),i,-6%
Cn1c(CCNS(=O)(=O)c2ccc(F)cc2)nnc1SCc1cccnc1,-5%,1%
COc1ccc(NC(=O)COc2ccc(S(=O)(=O)NC3CCCCC3)cc2)c(OC)c1,-3%,4%
Cc1cc(SCC(=O)NN=C2CCN(C(C)C)CC2)c(C)cc1Br,-16%,-8%
COc1cc(C2CC(=O)NC3=C2C(=O)CC(C)(C)C3)cc(OC)c1O (centres undefined),.,?

# Next part:
SMILES,VACV mCherry inh,VACV Venus inh
COc1ccccc1N1CCN(C2CCCN(C(=O)c3cc(C(C)C)on3)C2)CC1 (centres undefined),?,-26%
CC(=O)N1CCCc2cc(S(=O)(=O)Nc3ccc(C)c(F)c3)ccc21,i,-10%
CC(=O)c1ccccc1NCC(=O)Nc1ccc(C)cc1,-16%,-5%
CC1(C(=O)NS(=O)(=O)c2cccs2)CCN1C(=O)CCc1ccc(Cl)cc1Cl (centres undefined),-5%,6%
COc1cccc(C(=O)NC2CC(=O)N(c3ccc4c(c3)OCCO4)C2)c1OC (centres undefined),-4%,4%
O=C(COC(=O)c1ccccc1[N+](=O)[O-])Nc1cc(S(=O)(=O)N2CCOCC2)ccc1N1CCCC1,i,-10%
O=C(Cn1c(C(F)(F)F)nc2ccccc21)N1CCCC1,-19%,-1%
Cc1ccc(C)c(N2CCN(c3nnnn3-c3ccccc3)CC2)c1,.,?
COc1ccc(S(=O)(=O)N(Cc2nc(-c3ccccc3)no2)C2CCCCC2)cc1,-12%,-10%
CC(NS(=O)(=O)c1cccc(Cl)c1)C(=O)Nc1ccc(-c2nc3ccccc3s2)cc1 (centres undefined),.,?
CCCn1cc(C(=O)OCC)c(=O)c2cc(F)c(F)cc21,-3%,-23%
OC1O[C@H](c2ccc3c(c2)OCO3)[C@H]2CO[C@H](c3ccc4c(c3)OCO4)[C@@H]12 (some centres undefined),-6%,-12%
COc1ccc(-c2nnc(NC(=O)C3CCCN3S(=O)(=O)c3cccs3)o2)cc1 (centres undefined),-27%,-16%
Cc1ccc(C2c3sc(=O)[nH]c3SC3C4CC(C5C(=O)N(C(C)C(=O)O)C(=O)C45)C23)cc1 (centres undefined),-9%,-9%
C=C(C)c1cccc(C(C)(C)NC(=O)NCc2cccnc2)c1,-2%,-2%
Cc1ccc(C)c(N2CCN(C(=O)Cn3cnc4onc(-c5ccc(F)cc5)c4c3=O)CC2)c1,0%,0%
Cc1c(C(=O)OCCOC(C)C)[nH]c2c1C(=O)CC(c1ccco1)C2 (centres undefined),?,-28%
Nc1cc(=O)[nH]c(SCC(=O)NNC(=O)Cc2ccccc2)n1,6%,3%
Cc1cc(C)cc(NCc2nnc3n2CCCCC3)c1,-7%,3%
Cc1ccc(C(=O)NC(=S)NNC(=O)c2ccccc2O)cc1,-10%,-5%
Cc1ccccc1CN1Cc2cnnn2-c2ccccc2C1C#N (centres undefined),-20%,2%
Cc1cc(NC(=O)CSc2ncc(C(=O)Nc3ccc(F)cc3)c(=O)n2C)no1,i,-11%
O=C(c1ccccc1)N1C(=O)C(c2ccccc2)Oc2ccccc21 (centres undefined),?,?
CC(C)c1ccccc1NC(=O)Nc1nnc([C@H]2C[C@H](O)[C@@H](CO)O2)s1,34%[activator],-5%
O=C(NCCCCCCNC(=O)c1cccs1)c1cccs1,i,-2%

# Entries of single compounds as entered above:
# Results for Cc1cc(SCC(=O)NN=C2CCN(C(C)C)CC2)c(C)cc1Br = VACV mCherry inh: -16%; VACV Venus inh: -8%
# Results for Oc1cccc(-c2nc3c4c(ncn3n2)-c2ccccc2CC42CCCC2)c1 = VACV mCherry inh: 13µM*; VACV Venus inh: 18µM*
# Results for Cn1c(=O)n(Cc2ccc(F)cc2)c(=O)c2c1nc1n2CCN1Cc1ccco1 = VACV mCherry inh: -13%; VACV Venus inh: -8%

# 6 entries out of the list, arranged by heavy-atom count, ascending.
SMILES,VACV mCherry inh,VACV Venus inh
CC(=O)N1N=C(c2ccccc2)OC1c1ccc([N+](=O)[O-])s1 (centres undefined),i,-6%
Cn1c(CCNS(=O)(=O)c2ccc(F)cc2)nnc1SCc1cccnc1,-5%,1%
CC1(C(=O)NS(=O)(=O)c2cccs2)CCN1C(=O)CCc1ccc(Cl)cc1Cl (centres undefined),-5%,6%
COc1cccc(C(=O)NC2CC(=O)N(c3ccc4c(c3)OCCO4)C2)c1OC (centres undefined),-4%,4%
CC(NS(=O)(=O)c1cccc(Cl)c1)C(=O)Nc1ccc(-c2nc3ccccc3s2)cc1 (centres undefined),.,?
O=C(COC(=O)c1ccccc1[N+](=O)[O-])Nc1cc(S(=O)(=O)N2CCOCC2)ccc1N1CCCC1,i,-10%

# (next part)
SMILES,VACV mCherry inh,VACV Venus inh
Cc1cc(C(=O)N/N=C/c2ccncc2)c2ccccc2n1,-29%,-12%
CCn1c(SCC(=O)N/N=C/c2ccc(OC)c(OC)c2)nc2ccccc21,i,-16%
Cc1cc(N2CCN(C)CC2)nc2ccc(NC(=O)CCC(=O)NCCc3ccc(Cl)cc3)cc12,-8%,-15%
CC(=NOC(=O)c1ccc(I)cc1)c1nccs1,25%,-5%
O=C(CC(c1ccco1)S(=O)(=O)c1ccccc1)c1ccccc1 (centres undefined),i,-7%
O=C(Nc1nnc(Cc2ccccc2)s1)C1CCN(C(=O)c2cccs2)CC1,-14%,-21%
CCOC(=O)c1c(-c2ccc(C)cc2)csc1NC(=O)c1cc(=O)c2cc(C)c(C)cc2o1,-20%,0%
Cc1ccc2c(c1)c1c(c(=O)n(-c3ccccc3)c(=O)n1CC(=O)NCCC1=CCCCC1)n2C,-4%,-2%
COc1ccc(Cl)cc1C(=O)Nc1ccc(S(N)(=O)=O)cc1,21%,-9%
OCCCNc1ncnc2c1ncn2[C@H]1CN(C2CCCC2)C[C@@H](CO)O1,-1%,-5%
Cn1cc([C@]2(O)C(=O)Nc3ccc(OC(F)(F)F)cc32)c2ccccc21,?,-29%
C=CCn1c(=O)c2ccccc2n2c(SCC(=O)O)nnc12,-9%,-5%
COc1ccc(OC)c(CNS(=O)(=O)c2ccc(-c3cc(C(F)(F)F)on3)s2)c1,i,-24%
COc1ccccc1C(=O)Nc1ccc(S(=O)(=O)Nc2nccs2)cc1,-3%,2%
C[C@@H]1CN([C@@H](C)CO)C(=O)c2cc(-c3ccccc3F)cnc2O[C@H]1CN(C)Cc1cccc(F)c1,-4%,-18%
COc1ccc(S(=O)(=O)Nc2ccc(CC#N)cc2)cc1,i,-7%
COc1cc(C(C)=O)ccc1OCC(O)Cn1nc(C)c(C(C)=O)c1C (centres undefined),-14%,-9%
Cc1ccc(OCCn2cc(/C=C(\C#N)C(=O)NCC3CCCO3)c3ccccc32)cc1 (centres undefined),-13%,-22%
Cc1ccc(CNc2nc(C)c(-c3ccn(CCN4CCOCC4)n3)s2)o1,-4%,4%
CC1CN(S(=O)(=O)c2ccc(C(=O)N(CCCN(C)C)c3nc4cc5c(cc4s3)OCCO5)cc2)CC(C)O1 (centres undefined),-28%,-17%
FC(F)(F)c1cc(Cl)c2nc(-c3ccc(Cl)cc3)c(Cc3ccccc3)n2c1,2%,3%
COc1ccc(CN2CC(=O)N(c3ccccc3OC)C2=S)cc1OC,12%,2%
OC1c2cc(Br)ccc2N=C2CCCCCN21 (centres undefined),15%,-8%
COc1ccc(C(=O)N/C(=C\c2ccc(SC)cc2)C(=O)NCCCn2ccnc2)cc1OC,-22%,-7%
COCCn1c(SCC(=O)Nc2nnc(C)s2)nnc1-c1ccoc1C,-14%,-9%

# The results go on:
SMILES,VACV mCherry inh,VACV Venus inh
COCCCNC(=O)c1cnc2sc(N3CCCCCC3)nn2c1=O,-10%,-8%
Cn1c(=O)c2c(nc(SCC(=O)NCC3CCCO3)n2C)n(C)c1=O (centres undefined),-8%,-7%
Cn1c(=O)c2ccccc2n(CC(=O)N2CCCc3ccccc32)c1=O,i,-18%
COC(=O)[C@@H](NC(=O)/C=C/c1ccc(OC)cc1)C(C)C,-2%,7%
O=C(CSc1ccccn1)N1CCN(c2ncc(C(F)(F)F)cc2Cl)CC1,-3%,-16%
CCOC(=O)c1ccc(NC(=O)CN2C(=O)NC3(CCC(C)CC3)C2=O)cc1 (centres undefined),-22%,-11%
Cc1cccc(N(C(=O)c2snc(C(N)=O)c2N)C(C(=O)NCC2CCCO2)c2ccc(N(C)C)cc2)c1C (centres undefined),-15%,-13%
CC(=O)Oc1cccc(C(=O)Nc2ccc3c(c2)C(=O)N(CC2CCCO2)C3=O)c1 (centres undefined),-8%,-9%
O=C(NCC(c1cccnc1)N1CCN(c2ccc(F)cc2)CC1)Oc1ccccc1 (centres undefined),-6%,-16%
Cc1ccc(S(=O)(=O)NN=C2C(=O)C3CCC2C3Cl)cc1 (centres undefined),i,-12%
Cc1ccc(CNC(=O)C2CCCN(S(C)(=O)=O)C2)cc1 (centres undefined),-13%,-7%
CC1(C(=O)NC2CCCCCCC2)CCC(=O)N1Cc1cccnc1 (centres undefined),-9%,1%
COc1ccc(/C=C/c2ccc3c(Br)ccc(O)c3n2)cc1,-16%,-19%
Cc1noc(C(=O)N2CCN(c3ccc(F)cc3)CC2)c1Cl,0%,-5%
CCOc1ccccc1NC(=O)C(OC(=O)c1cc(C)oc1C)c1ccccc1 (centres undefined),i,-12%
CCOC(=O)C(C)Oc1ccc(NC(=O)C(Cl)(Cl)Cl)cc1 (centres undefined),-11%,-10%
CC(C)c1ccc(C2C3=C(COC3=O)Nc3cc4c(cc32)OCO4)cc1 (centres undefined),?,?
CCn1cc(C(=O)NCc2ccc3c(c2)OCO3)c(=O)c2cc(S(=O)(=O)N(C)C)ccc21,-12%,-6%
CC(C)(OC1OC(CO)C(O)C(O)C1O)[C@H]1Oc2ccc3ccc(=O)oc3c2[C@H]1O (some centres undefined),1%,-10%
CCOC(=O)C1CCN(C(=O)COC(=O)c2cccc(NS(=O)(=O)c3ccccc3)c2)CC1,i,3%
CCOc1ccc(-c2nn(-c3ccccc3)cc2C2NC(=O)NC(C)=C2C(=O)OC(C)C)cc1 (centres undefined),-10%,-8%
CCOC(=O)c1c(C)nc2c(c1-c1ccccc1)C(=O)c1ccccc1-2,?,?

# Individual results from the results shown:
# For VACV Venus inh, Cc1ccc(C2c3sc(=O)[nH]c3SC3C4CC(C5C(=O)N(C(C)C(=O)O)C(=O)C45)C23)cc1 (centres undefined) has the entry -9%
# For VACV mCherry inh, O=C(Cn1c(C(F)(F)F)nc2ccccc21)N1CCCC1 has the entry -19%
# For VACV Venus inh, COc1ccccc1C(=O)Nc1ccc(S(=O)(=O)Nc2nccs2)cc1 has the entry 2%
# For VACV Venus inh, COc1cccc(C(=O)NC2CC(=O)N(c3ccc4c(c3)OCCO4)C2)c1OC (centres undefined) has the entry 4%

# Compound activity: PubChem BioAssay, National Center for Advancing Translational Sciences (NCATS)
